ugtP null kill: growth inhibition of S. aureus ugtP deletion strain | S. aureus RN4220 ugtP deletion, OD600 growth, 16 h; some inactives read as strong as hits | growth inhibition, % (no concentration beside the values) | hit rate 0.54% among 330,000 | AID 1259309;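 active = z-score under -3 and OD600 up to 0.15 on both plates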;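 note: plate controls were untreated wells for no effect and antibiotic for full effect; wells of about 80 µL received 100 nL stock; the first replicate is given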
Bead autofluor: counter-screen for toxin protease inhibitors: compound fluorescence | compound autofluorescence counterscreen, microsphere flow cytometry; active compounds read high | fluorescence intensity (concentration not given with the values) | hit rate 3.1% among 360,000 | AID 624483;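 active = at least 3 SD above the mean of all compounds, about 16000 in these data; inconclusive = too few beads counted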;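 note: 100 nL of 1 mM stock went into each well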
BJeLR lethal: kills HRASV12-expressing BJeLR cells. hit rate 0.17% among 300,000. BJeLR (HRASV12) viability, CellTiter-Glo ATP luminescence, 48 h; reference of the scale not given here. inhibition, % (concentration not given with the values);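 active = replicate mean above 50%; inconclusive = above 50% but judged a plate artefact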;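 note: 50 nL library stock added to about 25 µL; numbers are from one replicate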
PrP UTR inh: inhibition of PrP 5' UTR reporter expression. cell-based PrP 5' UTR mRNA reporter, plate reader. inhibition, % (concentration not given with the values). hit rate 0.35% among 340,000. AID 488862;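 active = every replicate at 50% or more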;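 note: 0 = median of the neutral control wells; tested in H4 reporter cells; numbers are from one replicate; inactives centre near -14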
Sa RN4220 lethal: S. aureus RN4220 growth inhibition | OD600, 16 h | inhibition, % (test concentration not listed) | hit rate 0.33% among 330,000 | AID 1259311;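 active = z-score of -3 or lower and OD600 up to 0.18 on both plates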;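 note: plate controls were untreated cells for no effect and reference antibiotic for full effect; stock transfer was 100 nL into about 80 µL; one replicate is shown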
Mtb hypoxia rep: Mtb hypoxia fluorescent reporter inhibition. M. tuberculosis hypoxia-regulated fluorescent reporter, fluorescence. fluorescence inhibition, % (no concentration beside the values). hit rate 0.1% among 300,000. AID 1159583;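 active = 35 to 45% if threefold the growth effect, above 45% if 1.5-fold the growth effect; inactive = the rest, general growth blockers included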;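 note: wells of about 50 µL received 100 nL stock; 0% = vehicle wells and 100% = reference inhibitor wells; whole bacteria with a GFP reporter of the hypoxia response; strong numbers were not always called active; many hits fall short of the cut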
Mtb hypoxia rep growth: further read-out of Mtb hypoxia rep, marked with its call; growth inhibition, %; measured here: M. tuberculosis growth (absorbance);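 0% = vehicle and 100% = reference antibiotic; read after six days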
* = called active by the depositor; ? = inconclusive; nt = not tested or not shown.

SMILES | ugtP null kill | Bead autofluor | BJeLR lethal | PrP UTR inh | Sa RN4220 lethal | Mtb hypoxia rep | Mtb hypoxia rep growth
CC1CC(C)CN(C(=O)COC(=O)CCCN2C(=O)c3cccc4cccc(c34)C2=O)C1 (stereo not drawn) | 1.1 | 5031 | 5.1 | -6.9 | 3.0 | 1.7 | 6.4
O=C(NN=Cc1ccc[nH]1)c1ccc(O)cc1 | 5.1 | nt | nt | nt | 3.0 | 7.6 | 1.0
CN(C)S(=O)(=O)c1cccc(C(=O)c2nccn2C)c1 | 4.1 | 5187 | -10.7 | -8.6 | 9.1 | -0.8 | 9.4
CCCS(=O)(=O)C(=C(Nc1ccccc1)Nc1ccccc1)S(=O)(=O)CCC | 8.7 | 6738 | 1.1 | -4.6 | 6.4 | 4.4 | 2.9
COc1ccc(OC)c(NC(=O)CSc2nnc(CNC(=O)c3ccco3)o2)c1 | 3.9 | 4760 | -1.8 | -18.2 | -1.7 | nt | nt
O=S(=O)(Cc1cc(Sc2ccc(Cl)cc2)nc(-c2ccccc2)n1)c1ccccc1 | 4.7 | 2320 | -2.4 | 25.9 | 3.0 | nt | nt
COc1ccc(C(=O)NCc2cccs2)cc1S(=O)(=O)N1CCOCC1 | 1.2 | 4322 | 0.5 | -9.3 | 3.1 | 9.3 | 2.0
COc1ccc(OC)c(NC(=O)c2cnc3n(c2=O)CCS3)c1 | 4.9 | 5500 | 5.7 | -38.1 | 1.0 | 19.2 | 11.3
Cc1ccsc1C1NC(=O)c2c(sc3c2CCN(C)C3)N1 (stereo not drawn) | -1.1 | 3663 | -4.6 | -38.6 | -11.9 | 5.2 | 7.5
NC(=O)C1CCN(S(=O)(=O)c2ccc3c(c2)OCCO3)CC1 | -2.0 | 5327 | -1.0 | -10.6 | 3.1 | -15.0 | 3.9
O=C(O)CCc1ccc(-c2ccc(Br)cc2)n1-c1ccc(O)cc1 | 51.4 | 3696 | 4.3 | 10.8 | 3.2 | 5.2 | 7.0
COc1ccc(N(C(=O)CCl)C(C)(C(=O)Nc2c(C)cccc2C)c2ccccn2)cc1 (stereo not drawn) | 4.5 | 3346 | 4.9 | -35.2 | 8.3 | 0.2 | 3.3
COc1cc(C2C(C(=O)Nc3ccccc3OC)=C(C)Nc3ncnn32)ccc1O (stereo not drawn) | 15.0 | 6424 | -8.4 | 3.8 | 5.6 | 5.3 | 5.2
CCCSc1ccc([C@H]2N[C@@](CC(C)C)(C(=O)OC)[C@H]3C(=O)N(C)C(=O)[C@@H]23)cc1 | nt | 3547 | -7.2 | -39.2 | nt | nt | nt
Cc1ccc(-c2nc3ccccc3[nH]2)cc1NC(=S)NC(=O)c1ccccc1Br | -25.4 | 2729 | 9.9 | -31.8 | 9.4 | -9.7 | -4.7
Cc1ccccc1NC(=O)CSc1nc2ccc(Nc3nc(N4CCOCC4)nc(N4CCOCC4)n3)cc2s1 | -10.4 | 5533 | 10.1 | 5.9 | -1.5 | -3.1 | 0.0
O=C(NC1CCCC1)C(c1ccc(Cl)cc1)N1CCc2ccccc21 (stereo not drawn) | 2.6 | 4438 | 4.7 | 1.0 | -0.3 | 5.0 | -1.8
O=C(O)C1CCC(Cn2c(SCc3cc(=O)n4cc(Br)ccc4n3)nc3ccsc3c2=O)CC1 (stereo not drawn) | 68.1 | 3264 | 8.0 | -17.1 | 60.5 | 5.9 | 1.5
Cc1cccc(NC(=O)c2ccc(Cn3cc(C(F)(F)F)ccc3=O)cc2)c1 | nt | 16900* | -3.8 | -17.7 | nt | nt | nt
O=C(C1=C[C@H](c2coc3ccccc3c2=O)C[C@H](OCCCCO)O1)N1CCN(Cc2ccccc2)CC1 | nt | 3935 | 10.2 | -19.5 | nt | nt | nt
Clc1ccc(C(c2nnnn2C2CCCC2)N2CCSCC2)cc1 (stereo not drawn) | -8.9 | 7495 | 2.3 | -13.9 | 8.4 | -4.9 | 6.0
Cc1cc(C(=O)NCC(=O)OC(C)C(=O)N2CCOCC2)ccc1[N+](=O)[O-] (stereo not drawn) | 5.8 | 3041 | nt | 0.4 | 2.4 | 2.2 | -4.1
COc1ccc(NC(=O)c2c(F)cccc2F)cc1S(=O)(=O)Nc1ccc(Br)cc1 | 73.9 | 2364 | 6.0 | -12.6 | -12.6 | -3.7 | -3.5
COc1ccc(OCC(=O)N2CCN(S(=O)(=O)c3ccccc3[N+](=O)[O-])CC2)cc1 | -4.9 | 4169 | -3.2 | -21.8 | 1.8 | 0.2 | 3.1
C/C(=N\O)c1c(O)cc(-c2ccccc2)n(-c2ccccc2)c1=O | nt | 5770 | 2.0 | -9.3 | nt | nt | nt
CCOC(=O)C1CCCN(C(=O)c2cn(CC)c(=O)c3cc(OC)c(OC)cc23)C1 (stereo not drawn) | -3.1 | 4198 | -0.3 | -7.9 | -1.0 | 2.6 | -1.9
CCOC(=O)Cc1csc(NC(=O)Cc2ccc([N+](=O)[O-])cc2)n1 | 5.2 | 2040 | 12.2 | 0.2 | -2.1 | 0.7 | -1.3
c1ccc(OCc2nc3ccccc3[nH]2)cc1 | -1.7 | 22117* | 5.6 | -39.8 | -1.3 | 2.4 | -4.7
Cc1cc(C)c(NS(=O)(=O)c2ccc(NC(=O)c3cccs3)cc2)c(C)c1 | 4.4 | 2134 | -0.3 | -12.3 | 9.1 | 2.5 | 3.6
CCSc1nc2nn(-c3ccccc3)c(=O)c-2c2n1CCCCC2 | -12.7 | 3345 | -5.9 | 9.3 | 5.8 | 8.7 | 13.0
CC(=O)Oc1ccc(N(C(C)=O)S(=O)(=O)c2ccc(C)cc2)c2ccccc12 | -6.6 | 3957 | -3.8 | -25.5 | 4.4 | 4.2 | 5.0
Cn1nc(C(=O)Nc2nnc(C3CC3)s2)c2ccccc2c1=O | -5.2 | 4267 | 13.0 | -20.9 | 10.7 | -2.3 | -4.6
CCOC(=O)C1CCN(C(=O)c2cccc(S(=O)(=O)N(CC)c3ccccc3)c2)CC1 | 10.3 | 2749 | nt | -16.3 | 8.3 | 2.1 | -4.6
CCc1ccccc1NC(=O)Cc1ccc(-n2cccc2)cc1 | 1.7 | 3026 | 0.9 | -8.0 | -0.9 | 4.8 | 9.6
COc1ccc(/C=C(\C#N)C(=O)NCCc2ccccc2)cc1OCc1ccccc1 | -11.2 | 2081 | -13.9 | -22.8 | 20.8 | 12.7 | 1.9
CCc1ccccc1NC(=O)CN(C)C(=O)COC(=O)c1ccccc1Cl | 9.6 | 3677 | nt | -11.7 | 7.3 | 4.1 | 3.4
OCC[C@@H]1C[C@H](O)[C@@H](O)[C@@]2(CCc3ccccc3O2)O1 | nt | 3950 | 5.9 | -30.8 | nt | nt | nt
Cc1cc(C)n2cc(CSCC(=O)O)nc2n1 | -1.5 | 2601 | 0.9 | -19.4 | 3.9 | 2.1 | 8.8
CC(C)Cc1nnc(NC(=O)CCC(=O)NCc2ccccc2Cl)s1 | 2.2 | 5113 | 0.0 | -10.9 | 0.6 | 4.2 | 5.8
O=C(CN1C2CCC1CC(NC(=O)C1CC1)C2)NCc1ccccc1 (stereo not drawn) | -0.3 | 9832 | 9.5 | -21.6 | -2.5 | 9.5 | -1.0
CC(C)[C@H](NS(=O)(=O)c1ccccc1F)C(=O)NC1CCCCC1 | 5.6 | 2831 | nt | 1.5 | 4.2 | 24.0 | 36.3
CCN(CC)C(=O)CSc1nc(O)c(Cc2ccccc2)c(=O)n1-c1ccc(C)cc1 | 1.2 | ? | 6.7 | -12.3 | 2.1 | 6.9 | 1.2
CCOc1ccc(-n2c(SCC(=O)Nc3ccc4c(c3)OCO4)nc3c(c2=O)SCC3)cc1 | -4.0 | 6113 | nt | -4.2 | -14.6 | 0.5 | 8.0
Cc1ccc(NC(=O)c2ccc(CSc3nccc(C)n3)cc2)cc1 | 3.7 | 3261 | -1.3 | -21.7 | 2.6 | 8.9 | 15.3
COc1cc(C=NNC(=O)CCn2nc(C)cc2C)ccc1O | 1.6 | nt | nt | nt | 1.9 | 4.3 | -5.5
CC(=NOC(=O)C1CC12CCC2)c1ccc(Br)cc1 (stereo not drawn) | 19.8 | nt | nt | nt | 1.5 | 1.3 | 5.1
O=C(NC(=S)N1CCN(c2ccccc2)CC1)c1ccccc1 | nt | 5578 | 3.5 | -19.4 | nt | nt | nt
CC1(c2ccccc2)CC(c2ccccc2)=Nc2nonc2N1 (stereo not drawn) | 3.8 | 4785 | 2.8 | -5.6 | -0.9 | nt | nt
O=C1C(Cl)=C(NCC2CCCO2)C(=O)N1c1cccc(Cl)c1Cl (stereo not drawn) | 4.0 | 2538 | -1.8 | -17.5 | 0.2 | nt | nt
C[N+](C)(CC#N)C/C=C\c1ccccc1 | 3.9 | 4489 | 0.7 | -5.5 | 2.2 | 5.1 | 7.4

Later entries.
SMILES | ugtP null kill | Bead autofluor | BJeLR lethal | PrP UTR inh | Sa RN4220 lethal | Mtb hypoxia rep | Mtb hypoxia rep growth
COc1ccc(-c2[nH]ncc2C=NNC(=O)c2cc(Br)ccc2O)c(OC)c1 | 7.1 | nt | nt | nt | 9.8 | 16.3 | 6.1
CN(Cc1ccccc1)C(=O)COC(=O)CCC(=O)c1ccc(F)cc1 | 1.5 | 4046 | nt | -13.3 | -0.9 | 2.0 | 2.9
CCOc1ccc(N2CC(C(=O)NNC(=O)c3ccc(F)cc3)CC2=O)cc1 (stereo not drawn) | 2.9 | 3332 | nt | -8.2 | -0.8 | 5.3 | 3.4
Clc1ccc(Sc2oc(C=Nn3cnnc3)cc2Br)cc1 | 7.2 | nt | nt | nt | -3.3 | 2.7 | 4.2
CCCc1[nH]nc2c1C1(C(=O)N(Cc3ccccc3)c3ccccc31)C(C(=O)OC)=C(N)O2 (stereo not drawn) | -20.0 | 17223* | -13.0 | 8.4 | 6.6 | 11.0 | 7.4
Cc1ccc(S(=O)(=O)NCC2CCC(C(=O)NC3CCCCC3)CC2)cc1 (stereo not drawn) | 4.4 | 3450 | 2.6 | -8.4 | 1.0 | 7.9 | 10.4
COCc1cc(CNC(=O)C2CCC(=O)N(Cc3ccccc3OC)C2)[nH]n1 (stereo not drawn) | 7.1 | nt | -2.9 | 5.4 | 1.5 | 5.8 | -2.6
Cc1ccc(S(=O)(=O)Nc2nc3n(n2)C(c2ccc(Cl)cc2)CC(=O)N3)cc1 (stereo not drawn) | -2.9 | nt | 3.8 | -17.7 | 4.2 | 1.3 | 4.0
CCn1c(CSc2nc3ccccc3n2C)nc2ccccc21 | 6.5 | 4618 | -3.7 | -11.1 | 0.9 | 10.2 | 9.3
CCNC(=O)CN(c1ccc(Oc2ccccc2)cc1)S(=O)(=O)c1ccccc1 | -2.1 | 6498 | 4.7 | -0.4 | 0.9 | -3.1 | 13.3
CC(=O)Oc1ccc(C(=O)Nc2cccc(NC(=O)c3ccco3)c2)cc1 | 2.1 | 5551 | 3.9 | 3.4 | 6.0 | 10.6 | 5.6
COc1ccc(-c2nnn(CC(=O)N(C3CCCCC3)C(C)C(=O)NC3CCCC3)n2)cc1OC (stereo not drawn) | 1.6 | 23408* | -0.7 | -30.3 | 6.0 | -4.6 | 6.7
Cc1cc(C)nc(-n2nc(C)c3c(=O)[nH]c(C(F)(F)F)nc32)n1 | -1.9 | nt | 1.1 | -21.6 | -26.4 | 0.7 | 15.5
O=C1c2cccc(OCC(=O)N3N=C(c4cccs4)CC3c3ccc(F)cc3)c2CCN1Cc1ccccc1 (stereo not drawn) | -4.5 | 2140 | 6.3 | -1.0 | -4.7 | -8.9 | -3.7

Shown with two lines to a compound: entries from further up.
Value order: ugtP null kill | Bead autofluor | BJeLR lethal | PrP UTR inh | Sa RN4220 lethal | Mtb hypoxia rep | Mtb hypoxia rep growth
- CC(=O)Oc1ccc(C(=O)Nc2cccc(NC(=O)c3ccco3)c2)cc1
 : 2.1 | 5551 | 3.9 | 3.4 | 6.0 | 10.6 | 5.6
- COc1ccc(-c2nnn(CC(=O)N(C3CCCCC3)C(C)C(=O)NC3CCCC3)n2)cc1OC (stereo not drawn)
 : 1.6 | 23408* | -0.7 | -30.3 | 6.0 | -4.6 | 6.7
- Cc1cc(C)nc(-n2nc(C)c3c(=O)[nH]c(C(F)(F)F)nc32)n1
 : -1.9 | nt | 1.1 | -21.6 | -26.4 | 0.7 | 15.5
- O=C1c2cccc(OCC(=O)N3N=C(c4cccs4)CC3c3ccc(F)cc3)c2CCN1Cc1ccccc1 (stereo not drawn)
 : -4.5 | 2140 | 6.3 | -1.0 | -4.7 | -8.9 | -3.7

Compound activity as filed in PubChem.
